Source: PubChem
Vaccinia inh – Vaccinia orthopox stage-specific inhibition. activity change (mCherry), % (test concentration not listed). AID 1053133. Vaccinia-infected cells, mCherry/Venus stage reporter fluorescence; hits give low values; some inactives read as strong as hits. actives 0.01% (n = 89,000);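 active means mCherry past -33% and 40 or more points under the early reporter, replicates agreeing; inconclusive means past -33% without that gap or agreement; tested in A549 cells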;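 further: scaled between vehicle wells and reference inhibitor wells; 23 nL library stock went into each well; one replicate is shown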
Vaccinia inh Venus – further read-out of Vaccinia inh, marked with its call; activity change (Venus), %; measured here: Venus reporter, other viral stage;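 negative = less Venus signal; first of two replicates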
Numbers without * were called inactive; ? = inconclusive; · = no result given. Some of the compounds tested. The share of hits here may be higher or lower than overall.

SMILES	Vaccinia inh	Vaccinia inh Venus
Cc1noc(C)c1NC(=O)N(C)C[C@@H]1Oc2ccc(NS(=O)(=O)c3ccc(Cl)cc3)cc2CC(=O)N([C@@H](C)CO)C[C@@H]1C	9.0	6.5
C[C@@H]1CN([C@@H](C)CO)C(=O)c2cc(NC(=O)NC3CCCCC3)ccc2O[C@@H](C)CCCCO[C@H]1CN(C)C(=O)CCC(F)(F)F	?	·
CO[C@H]1CN(C)C(=O)c2cc(NC(=O)C3CC3)ccc2OC[C@@H](C)N(C(=O)CN(C)C)C[C@H]1C	7.4	7.9
O=C(Cc1ccccc1)OC(COCc1ccccc1)C(=O)NCc1ccccc1 (stereo not given)	18.5	6.5
COC(=O)[C@@H]1[C@@H](CO)[C@@H]2Cn3c(ccc(-c4cncnc4)c3=O)[C@@H]2N1CCC(F)(F)F	7.3	7.4
C[C@@H]1CN([C@@H](C)CO)C(=O)c2cccc(NC(=O)Nc3ccc4c(c3)OCO4)c2O[C@H]1CN(C)S(=O)(=O)c1ccc(F)cc1	14.8	7.8
C[C@@H]1CN([C@@H](C)CO)C(=O)c2cc(NC(=O)Nc3ccc4c(c3)OCO4)ccc2O[C@@H](C)CCCCO[C@H]1CN(C)C(=O)Nc1ccccc1	2.5	-5.8
C[C@H]1CCCCO[C@@H](CN(C)C(=O)Nc2ccc(F)cc2)[C@@H](C)CN([C@@H](C)CO)C(=O)c2cc(NS(C)(=O)=O)ccc2O1	25.8	11.3
COc1ccc2c3c(n(C)c2c1)[C@@H](CO)NCC31CN(C(=O)Nc2ccccc2F)C1	16.8	2.5
C[C@@H]1CN([C@@H](C)CO)C(=O)c2cc(C#Cc3ccc(F)cc3)cnc2O[C@@H]1CN(C)C(=O)c1ccccc1F	?	·
C[C@H]1CN([C@@H](C)CO)C(=O)c2cc(-c3cccnc3)cnc2O[C@@H]1CN(C)C	14.8	5.4
CN1[C@H](C(=O)Nc2ccccc2)[C@@H](CO)[C@@H]2Cn3c(ccc(-c4ccc(F)cc4)c3=O)[C@@H]21	3.5	11.9
O=C(C[C@H]1CC[C@H]2[C@@H](COC[C@@H](O)CN2C(=O)c2cnccn2)O1)NCc1ccccc1	12.9	12.1
Cc1noc(C)c1S(=O)(=O)Nc1ccc2c(c1)C(=O)N([C@@H](C)CO)C[C@@H](C)[C@H](CN(C)S(=O)(=O)c1ccc(Cl)cc1)OCCCC[C@@H](C)O2	?	·
Cc1cccc(-c2ccc([C@@H]3[C@H]4CN(C(=O)c5ccc6c(c5)OCO6)CCCCN4[C@H]3CO)cc2)c1	?	·
Cn1cnc(S(=O)(=O)N2CCCCN3[C@H](CO)[C@@H](c4ccc(C#CC5CCCC5)cc4)[C@@H]3C2)c1	?	·
CCCN(C)C[C@@H]1OCCCC[C@@H](C)Oc2ccc(NS(=O)(=O)c3ccc(C)cc3)cc2C(=O)N([C@H](C)CO)C[C@@H]1C	-3.8	-7.0
C[C@H]1CCCCO[C@H](CN(C)C)[C@@H](C)CN([C@@H](C)CO)C(=O)c2cc(NC(=O)CCCN(C)C)ccc2O1	4.3	6.0
Cc1noc(C)c1S(=O)(=O)Nc1ccc2c(c1)C(=O)N([C@H](C)CO)C[C@@H](C)[C@@H](CN(C)C(=O)NC1CCCCC1)OCCCC[C@@H](C)O2	-23.3	-19.4
CCCN1C[C@@H](C)[C@H](OC)CN(C)C(=O)c2ccc(NC(=O)c3cccc(F)c3)cc2OC[C@@H]1C	-5.8	-7.0
C[C@@H]1CN([C@H](C)CO)C(=O)c2cc(NC(=O)Cn3cnnn3)ccc2O[C@@H]1CN(C)Cc1ccc(-c2ccccc2)cc1	-2.3	-5.7
Cc1noc(C)c1NC(=O)N(C)C[C@H]1Oc2ccc(NS(=O)(=O)c3cn(C)cn3)cc2C(=O)N([C@H](C)CO)C[C@H]1C	5.1	1.4
Cc1noc(C)c1NC(=O)Nc1cccc2c1O[C@@H](CN(C)C(=O)NC(C)C)[C@@H](C)CN([C@H](C)CO)C2=O	-1.8	-10.2
COc1cccc(CNC(=O)C[C@@H]2CC[C@@H](NC(=O)C3CCOCC3)[C@@H](CO)O2)c1	-0.7	0.2
C[C@@H]1CCCCO[C@H](CN(C)S(=O)(=O)c2ccc(F)cc2)[C@@H](C)CN([C@@H](C)CO)C(=O)c2cc(NC(=O)C3CCCCC3)ccc2O1	-12.5	-6.1

The last four entries of the section before are carried over, then new ones follow:
SMILES	Vaccinia inh	Vaccinia inh Venus
Cc1noc(C)c1NC(=O)N(C)C[C@H]1Oc2ccc(NS(=O)(=O)c3cn(C)cn3)cc2C(=O)N([C@H](C)CO)C[C@H]1C	5.1	1.4
Cc1noc(C)c1NC(=O)Nc1cccc2c1O[C@@H](CN(C)C(=O)NC(C)C)[C@@H](C)CN([C@H](C)CO)C2=O	-1.8	-10.2
COc1cccc(CNC(=O)C[C@@H]2CC[C@@H](NC(=O)C3CCOCC3)[C@@H](CO)O2)c1	-0.7	0.2
C[C@@H]1CCCCO[C@H](CN(C)S(=O)(=O)c2ccc(F)cc2)[C@@H](C)CN([C@@H](C)CO)C(=O)c2cc(NC(=O)C3CCCCC3)ccc2O1	-12.5	-6.1
CC(C)(O)C#Cc1ccc([C@H]2[C@H]3CN(S(C)(=O)=O)CCCCN3[C@H]2CO)cc1	23.3	13.2
C[C@@H]1CCCCO[C@@H](CN(C)Cc2ccc3c(c2)OCO3)[C@@H](C)CN([C@@H](C)CO)C(=O)c2cc(NC(=O)C3CCCCC3)ccc2O1	?	·
C[C@@H]1CCCCO[C@H](CN(C)C(=O)Nc2ccccc2)[C@@H](C)CN([C@H](C)CO)C(=O)c2cc(NC(=O)Nc3ccc4c(c3)OCO4)ccc2O1	10.9	2.9
COc1ccc(CN(C)C[C@H]2Oc3ccc(NS(=O)(=O)c4ccccc4)cc3C(=O)N([C@@H](C)CO)C[C@H]2C)cc1	14.1	17.1
C[C@@H]1CN([C@@H](C)CO)C(=O)Cc2cc(NS(=O)(=O)c3ccc(F)cc3)ccc2O[C@@H]1CN(C)CC1CC1	1.2	0.0
O=C(Cc1ccccn1)N1CC(=O)N2[C@H](CO)[C@H](c3ccc(C#CC4CCCC4)cc3)[C@@H]2C1	-11.9	-0.9
O=C(Nc1ccc(C(F)(F)F)cc1)N[C@H]1C=C[C@H](CC(=O)N2CCCCC2)O[C@H]1CO	7.9	14.5
O=C(c1ccccc1)N1CC2(C1)[C@H](c1ccccc1)[C@@H](CO)N2CC1CC1	10.6	6.7
CN1CCN(C(=O)C[C@H]2CC[C@@H]3[C@H](COC[C@H](O)CN3C(=O)Cc3ccccc3)O2)CC1	-6.0	-7.1
C[C@H]1CN([C@@H](C)CO)C(=O)c2cccc(NC(=O)Nc3cccc4ccccc34)c2O[C@H]1CN(C)Cc1ccc(C(F)(F)F)cc1	-9.4	-16.4
CCCC#Cc1ccc([C@H]2[C@H]3CN(S(=O)(=O)CC)CCCCN3[C@H]2CO)cc1	10.5	-13.0
C[C@@H]1CN([C@@H](C)CO)C(=O)Cc2cc(NC(=O)Nc3ccc(C(F)(F)F)cc3)ccc2O[C@H]1CN(C)S(=O)(=O)c1cn(C)cn1	-2.0	-3.4
O=C(c1ccncc1)N1CC2(C1)[C@H](c1ccccc1)[C@@H](CO)N2CC1CC1	9.6	10.9
O=C(C[C@@H]1C=C[C@@H](NC(=O)Nc2ccc(F)cc2)[C@H](CO)O1)NCc1cccc(F)c1	-5.3	-9.6
C[C@H](CO)N1C[C@H](C)[C@H](CN(C)Cc2ccncc2)OCCCC[C@H](C)Oc2ccc(NC(=O)Nc3ccc(C(F)(F)F)cc3)cc2C1=O	?	·
C[C@H](CO)N1C[C@H](C)[C@@H](CN(C)Cc2ccncc2)Oc2c(NC(=O)Nc3ccc(F)cc3)cccc2C1=O	2.7	11.3
CO[C@@H]1CN(C)C(=O)c2cc(NS(=O)(=O)c3ccccc3C)ccc2OC[C@@H](C)N(S(=O)(=O)c2ccccc2)C[C@H]1C	-29.8	-23.3
CCCNC(=O)N(C)C[C@H]1Oc2cc(C#C[C@H](C)O)ccc2S(=O)(=O)N([C@@H](C)CO)C[C@H]1C	24.4	14.0
C[C@@H]1CN([C@H](C)CO)C(=O)c2cc(N(C)C)ccc2O[C@@H](C)CCCCO[C@@H]1CN(C)C(=O)NC1CCCCC1	-7.6	3.0
CNC[C@H]1OCCCC[C@H](C)Oc2ccc(NC(=O)Nc3cccc4ccccc34)cc2C(=O)N([C@@H](C)CO)C[C@@H]1C	4.1	14.7
C[C@@H]1CN([C@H](C)CO)S(=O)(=O)c2ccc(C#CC3CC3)cc2O[C@H]1CN(C)C(=O)c1cccnc1	2.7	8.2
Cc1ccc(S(=O)(=O)Nc2ccc3c(c2)C(=O)N([C@H](C)CO)C[C@H](C)[C@H](CN(C)C(=O)Nc2cccc4ccccc24)OCCCC[C@H](C)O3)cc1	-8.8	-6.4
CN(C)C(=O)C[C@H]1CC[C@@H]2[C@@H](COc3ccc(NC(=O)c4ccc(F)c(F)c4)cc3C(=O)N2C)O1	-9.3	-4.3
CCCNC(=O)N(C)C[C@H]1Oc2ncc(C#C[C@H](C)O)cc2C(=O)N([C@H](C)CO)C[C@@H]1C	0.9	2.2
O=C(C[C@H]1CC[C@H](NC(=O)c2ccc(F)cc2)[C@@H](CO)O1)NCc1ccncn1	10.4	3.0

(cont.)
SMILES	Vaccinia inh	Vaccinia inh Venus
C[C@H]1CN([C@@H](C)CO)C(=O)Cc2cc(NC(=O)C3CC3)ccc2O[C@@H]1CN(C)S(=O)(=O)c1ccc(F)cc1	8.0	5.5
C[C@@H]1CCCCO[C@@H](CN(C)Cc2ccncc2)[C@@H](C)CN([C@@H](C)CO)C(=O)c2cc(NS(=O)(=O)c3cn(C)cn3)ccc2O1	14.8	9.8
Cc1ccc(S(=O)(=O)Nc2ccc3c(c2)C(=O)N([C@@H](C)CO)C[C@H](C)[C@H](CN(C)Cc2ccncc2)O3)cc1	10.8	11.2
CCC(=O)N(CC)C[C@H]1[C@H](c2ccccc2)[C@@H](CO)N1C(C)=O	6.4	13.5
N#C[C@H]1[C@H](c2ccc(-c3cccnc3)cc2)[C@H](CO)N1C(=O)C1CC1	3.0	8.2
COc1ccccc1-c1ccc2c(c1)[C@H]1[C@H](CCN1C(=O)C1CCC1)[C@H](CO)N2	?	·
CC(C)NC(=O)Nc1ccc2c(c1)C(=O)N([C@H](C)CO)C[C@H](C)[C@@H](CN(C)CC1CCCCC1)OCCCC[C@@H](C)O2	9.8	-2.1
C[C@@H]1CN([C@@H](C)CO)C(=O)CCCn2nncc2CO[C@H]1CN(C)C(=O)Nc1cccc(F)c1	6.1	-0.2
Cn1cnc(S(=O)(=O)N2CCCCN3[C@H](CO)[C@H](c4ccc(C#CC5CCCC5)cc4)[C@@H]3C2)c1	-32.4	-27.7
C[C@H](CO)N1C[C@H](C)[C@H](CN(C)C(=O)Nc2ccccc2)Oc2ncc(C#CCN(C)C)cc2C1=O	40.5	19.7
C/C=C/c1cnc2c(c1)C(=O)N([C@@H](C)CO)C[C@H](C)[C@H](CN(C)C(=O)Nc1c(C)noc1C)O2	21.7	28.6
CNC[C@H]1OCCCC[C@@H](C)Oc2ccc(NC(=O)NC3CCCCC3)cc2C(=O)N([C@H](C)CO)C[C@@H]1C	-19.6	-12.8
COc1cccc(-c2cnc3c(c2)C(=O)N([C@H](C)CO)C[C@@H](C)[C@H](CN(C)CC2CCCC2)O3)c1	-32.3	-25.1
C[C@H]1CN([C@@H](C)CO)S(=O)(=O)c2ccc(C#CC(C)(C)O)cc2O[C@H]1CN(C)C(=O)CC1CC1	6.8	11.8
CC(=O)N1Cc2cc(C(=O)NCc3cccc(F)c3)nc(-c3cccc(C4=CCCC4)c3)c2[C@@H]1CCO	?	·
O=C(C[C@H]1CC[C@@H]2[C@H](COC[C@@H](O)CN2CCc2ccccc2)O1)NCCCN1CCOCC1	-0.8	-5.2
CCCN(C)C[C@H]1Oc2ncc(-c3cccc(C(=O)N(C)C)c3)cc2C(=O)N([C@@H](C)CO)C[C@H]1C	34.9	13.3
COc1ccc(S(=O)(=O)N(C)C[C@@H]2Oc3c(NC(=O)NC4CCCCC4)cccc3C(=O)N([C@@H](C)CO)C[C@@H]2C)cc1	?	·
C[C@@H]1CN([C@@H](C)CO)C(=O)c2cc(NC(=O)C3CC3)ccc2O[C@H]1CN(C)C	21.6	12.0
CCN1[C@H](C(=O)NCCCN(C)C)[C@@H](CO)[C@@H]2Cn3c(ccc(-c4cccc(F)c4)c3=O)[C@@H]21	12.2	10.9
CN1CCN(C(=O)c2cc3c(c(-c4cccc(-c5ccc(C#N)cc5)c4)n2)[C@H](CCO)N([S@@](=O)C(C)(C)C)C3)CC1	0.1	3.6
CCCN1[C@H](C(=O)NCCCN2CCOCC2)[C@@H](CO)[C@@H]2Cn3c(ccc(-c4ccncc4)c3=O)[C@@H]21	3.4	6.8
CCC(=O)N1[C@H](CO)[C@H](c2ccc(-c3ccccc3)cc2)[C@H]1CN(CC)C(C)=O	8.2	11.7
COc1ccc2c3c(n(C)c2c1)[C@@H](CO)N(C(=O)C1CC1)CC31CN(C)C1	2.6	-7.2
CCC(=O)Nc1ccc2c(c1)C(=O)N(C)[C@@H]1CC[C@@H](CC(=O)NCC3CC3)O[C@H]1CO2	17.4	13.1

Whole records, looked up by structure. Values in the order: Vaccinia inh | Vaccinia inh Venus
O=C(C[C@@H]1C=C[C@@H](NC(=O)Nc2ccc(F)cc2)[C@H](CO)O1)NCc1cccc(F)c1 as listed: -5.3 | -9.6
Cc1cccc(-c2ccc([C@@H]3[C@H]4CN(C(=O)c5ccc6c(c5)OCO6)CCCCN4[C@H]3CO)cc2)c1 as listed: ? | ·
C[C@H]1CCCCO[C@@H](CN(C)C(=O)Nc2ccc(F)cc2)[C@@H](C)CN([C@@H](C)CO)C(=O)c2cc(NS(C)(=O)=O)ccc2O1 as listed: 25.8 | 11.3
O=C(Cc1ccccn1)N1CC(=O)N2[C@H](CO)[C@H](c3ccc(C#CC4CCCC4)cc3)[C@@H]2C1 as listed: -11.9 | -0.9
COc1ccccc1-c1ccc2c(c1)[C@H]1[C@H](CCN1C(=O)C1CCC1)[C@H](CO)N2 as listed: ? | ·
